Measles inh – inhibitors of measles virus growth in infected cells. infected Vero cells, GFP fluorescence, 64 h; hits give low values. z-score (test concentration not listed). 33,000 compounds, 0.1% hits;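 active = z-score under -3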;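 also: score is relative to mean and SD of the compound wells of a plate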
* marks the source's active call; other numbers are inactive results. An excerpt; count on the stated rates, not on these rows.

SMILES	Measles inh
O=C1NC(c2ccccc2)C(C(=O)c2ccccc2)C(O)(C(F)(F)F)N1 (configuration not stated)	-0.3
CC(=O)c1cccc(NC(=O)CCS(=O)(=O)c2ccc(Br)s2)c1	-0.52
O=C(c1ccc(F)cc1)N1CCCCCC1	0.78
CC1CC(=O)Nc2ccccc2N1C=O (configuration not stated)	-0.4
COc1ccccc1C(CCN)c1ccco1 (configuration not stated)	-0.37
CCOC(=O)c1cccc(NC(=O)c2cc3cc4ccc(OC)cc4nc3s2)c1	1.4
CC1CCCC(NC(=O)Cc2ccc(-n3c(=S)[nH]c4ccccc4c3=O)cc2)C1C (configuration not stated)	1.1
CCOc1ccc(-c2cc(C(=O)NC3CCCCC3C)c3ccccc3n2)cc1 (configuration not stated)	-1.5
O=C(CCSCc1ccc(Cl)cc1)N1CCN(c2ccccc2)CC1	0.07
CCOC(=O)c1[nH]c(C)c(C(Br)=CBr)c1C	-0.2
CCOC(=O)C1=C(C)NC(=O)NC1c1cccc(Oc2ccccc2)c1 (configuration not stated)	-0.55
COc1ccc(S(=O)(=O)NC2CCS(=O)(=O)C2)cc1 (configuration not stated)	0.67
COc1ccccc1NC(=O)Cn1cnc2sc(C(=O)Nc3nc4ccc(Br)cc4s3)c(C)c2c1=O	-0.61
CCOc1cccc2cc(C(N)=O)c(=Nc3ccc(OC)cc3)oc12	-0.94
O=C(c1ccc(C(=O)N2CCC(c3ccccc3)CC2)s1)N1CCC(c2ccccc2)CC1	-1.2
Cc1ccc(CNC(=O)c2ccc(N3CC4CC(C3)c3cccc(=O)n3C4)c(NS(=O)(=O)c3ccc4c(c3)OCCO4)c2)cc1 (configuration not stated)	-0.64
O=C(Nc1ccccc1-c1nc2ccccc2[nH]1)c1ccc(S(=O)(=O)N2CCCC2)cc1	-1.5
CCCCc1c(O)nc(SCC(=O)N2CCOCC2)n(-c2ccc(C)cc2)c1=O	0.47
CC1=C(C(=O)OCc2ccccc2)C(c2ccsc2)C2=C(CC(C)(C)CC2=O)N1 (configuration not stated)	-0.53
O=c1oc2ccccc2c(NCc2ccccc2F)c1[N+](=O)[O-]	2
CCCOC(=O)c1ccc(NC(=O)c2ccc(Cl)c([N+](=O)[O-])c2)cc1	-0.7
COc1ccc(Nc2nc(C)nc3sc(C)cc23)cc1OC	-2.3
Cc1ccc(-c2nnc(SCC#CCOC(=O)c3ccco3)o2)cc1	-0.5
COC(=O)CNC(=O)c1cn(-c2ccccc2OC)c(=O)c2ccccc12	-0.64
O=C(CCN1C(=O)C2C3C=CC(CC3)C2C1=O)N1CCN(c2ccc(F)cc2)CC1 (configuration not stated)	-0.63
O=C(c1ccc2nc3ccccc3c(=O)n2c1)N1CCN(c2ccccc2)CC1	0.6
CCOc1ccc(C2C(=O)N(C3CCCCC3)CC(=O)N2Cc2ccccc2Cl)cc1OC (configuration not stated)	-1.4
CCC1(c2ccc3cc(OC)ccc3c2)SC(NC(C)=O)=NN1C(C)=O (configuration not stated)	0.8
CCc1ccc(S(=O)(=O)N=C2C=C(Nc3ccc(C(=O)O)cc3)C(=O)c3ccccc32)cc1	-0.73
O=S(=O)(Nc1cc2c3c(oc2c2ccccc12)CCCC3)c1cccs1	-0.24
CCOc1cc(-c2ccc3c(c2)OCO3)cc(=O)c2c(C)oc(C)c12	-0.29
CCC1Oc2ccc(C)cc2N(CC(=O)N2CCN(c3cccc(OC)c3)CC2)C1=O (configuration not stated)	-0.28
Cc1ccc(S(=O)(=O)CCC(=O)NCc2ccccc2)cc1	0.82
CC(=O)Nc1ccc(S(=O)(=O)Nc2nnc(C3CCCCC3)s2)cc1	1.1
CCOC(=O)c1ccc(-c2nnc(-c3cccc(F)c3)o2)cc1	-0.15
COc1ccc(-c2cc3ncc(-c4ccccc4)c(N)n3n2)cc1	0.82
COc1cc2nc(C=Cc3ccc(F)cc3)n(-c3ccc(C)cc3)c(=O)c2cc1OC	1.2
CCOC(=O)c1c(N=Cc2ccccc2O)sc(C)c1C	-0.99
O=C(Nc1cccc(C(F)(F)F)c1)c1scc2c1CCCC2	0.61
CC(C)CN(CC(C)C)S(=O)(=O)N1CCC(C(=O)N2CCOCC2)CC1	-0.89
Nc1ncc(-c2cc3ccccc3oc2=O)s1	0.63
CCCCCCOc1ccc(-c2ccc(C#N)cn2)cc1	-0.98
COc1ccc(OC)c(-n2cc3c(c2-c2ccccc2)c(=O)n(C)c(=O)n3C)c1	-0.52
Nc1cc([N+](=O)[O-])ccc1N1CCCCC1	-0.49
CCCOc1ccc(C2C(=O)N(C3CCCCC3)CC(=O)N2Cc2cccs2)cc1OC (configuration not stated)	-1.4
CC(C)CCNC(=O)CSc1cc(=O)n(C)c2ccccc12	0.51
CSc1nc2c(c(=O)n(C)c(=O)n2C)n1C	0.57
CCOC(=O)Cc1c(C)nc2c(-c3ccc(Cl)cc3)c[nH]n2c1=O	-1.2
CCOCCCNC(=O)C1c2ccccc2C(=O)N2CCc3cc(OC)c(OC)cc3C12 (configuration not stated)	-0.29
CNS(=O)(=O)c1cc(-c2nnc(Nc3cccc(Cl)c3)c3ccccc23)ccc1C	-1

(list continues)
SMILES	Measles inh
COc1cccc(CNC(=O)c2ccc3c(c2)NC(=O)C(N2CCOCC2)S3)c1 (configuration not stated)	-2.2
O=C(NC1CCCCC1)C1CCC(=O)N1CCc1ccccc1 (configuration not stated)	0.32
CCCCc1ccc(Nc2ncnc3c2cnn3-c2ccc(OC)cc2)cc1	-1.3
O=C(Nc1sc2c(c1C(=O)NCC1CCCO1)CCCC2)c1cccs1 (configuration not stated)	-0.18
COC(=O)C1=C(C)NC2=C(C(=O)c3ccccc32)C1c1ccc(Br)cc1 (configuration not stated)	0.05
COc1cc2c(cc1OC)C(C(=O)N1CCCC(C)C1)C(c1ccc(SC)cc1)N(C)C2=O (configuration not stated)	0.8
O=C(O)CNc1nc(-c2ccccc2)nc2ccccc12	-0.53
CCC1CCc2c(sc(NC(=O)C3c4ccccc4Oc4ccccc43)c2C(=O)OC)C1 (configuration not stated)	-0.63
CCC(CC)C(=O)Nc1c2c(nn1-c1cccc(Cl)c1)CS(=O)C2 (configuration not stated)	0.85
CCCN1C(=O)CN(C2CCC(C)CC2)C(=O)C1c1ccc(C)cc1 (configuration not stated)	-0.71
Cc1cc2nc3scc(-c4ccc(Cl)cc4)n3c2cc1C	1.3
COc1ccc(-c2cc(C(=O)NC3CCCCCCC3)c3ccccc3n2)cc1OC	-0.13
O=c1c(CO)cc(CO)cc(CO)c1O	1.2
COc1ccc(CC(=O)NCCc2cc3cc(C)c(C)cc3[nH]c2=O)cc1	0.35
CCOC(=O)c1[nH]c2c([N+](=O)[O-])cccc2c1CC	-0.6
O=C(c1ccco1)N1CCN(C(=O)c2ccc(COc3ccc(F)cc3)o2)CC1	-0.24
COC(=O)c1c(NC(=O)c2cccnc2)sc2c1CCC2	0.26
CC(=O)NCCn1c(SCc2ccc(Cl)cc2)nc2ccccc2c1=O	-1.7
CCOc1ccc2c(=O)c(Oc3cccc(C)c3)coc2c1	-1.1
CC(C)C1CC(CCNCc2ccco2)(c2ccccc2)CCO1 (configuration not stated)	-0.35
N#Cc1ccc(NC(=O)c2cnn3c(C(F)(F)F)cc(-c4ccco4)nc23)cc1	-0.43
Cc1ccc(OCC(=O)Nc2c(C)n(C)n(-c3ccccc3)c2=O)cc1	0.43
CC1CC(C)CN(c2cc(N(C)CCO)c([N+](=O)[O-])c3nonc23)C1 (configuration not stated)	0.57
CCC(=O)N1CCc2cc(Br)cc(S(=O)(=O)N3CCN(CC)CC3)c21	-0.46
CCC(C)(C(=O)NC1CCCC1)N(Cc1cccs1)C(=O)C1CCC(=O)N1 (configuration not stated)	-0.22
Cc1ccnc(NS(=O)(=O)c2ccc(NC(=O)CC(C)C)cc2)n1	0.03
COCCNC(=O)CN1C(=O)c2cccc3cccc1c23	-0.86
COc1ccc(-c2nc3cc(NC(=O)c4ccc(-c5ccc([N+](=O)[O-])cc5)o4)ccc3o2)cc1	0.48
CCOC(=O)c1c(NC(=O)COc2cccc(C)c2C)sc(C)c1C	-1.9
COc1ccc(C2=NC(c3ccccc3OC)NC(c3cccc(OC)c3O)C2)cc1 (configuration not stated)	-0.73
O=C(NCCN1CCOCC1)c1cc(-c2ccc(Cl)cc2)on1	-0.28
COc1ccc(S(=O)(=O)Nc2ccc3oc4c(c3c2)C(=O)CCC4)cc1	0.35
Cc1cccc2nc(-c3ccsc3)c(Nc3ccc4c(c3)OCCO4)n12	-1.2
O=S(=O)(NCc1ccccc1)c1cnc[nH]1	0.37
COc1ccc(NC(N)=Nc2nc3c(c(=O)[nH]2)CCCC3)cc1	-0.36
Cc1ccccc1OCCNS(=O)(=O)c1ccc2oc3ccccc3c2c1	-0.48
CCN(CC)C(=O)C1c2cc(OC)c(OC)cc2C(=O)N(C)C1c1cccs1 (configuration not stated)	-0.64
CN(C)CCOC(=O)C(c1ccccc1)c1ccccc1	-0.04
O=C(Nc1ccc(Cl)cn1)c1ccc(I)cc1	-0.45
Cc1cc(OCCN2CCOCC2)nc(N2CCOCC2)n1	0
COc1ccc(Oc2coc3cc(OCc4cccc(Cl)c4)ccc3c2=O)cc1	0.42
CCOc1cc(C(=S)N2CCOCC2)ccc1OC(=O)Cc1ccccc1	0.52
CC(NC(=O)C1(O)c2ccccc2NC(=O)N1c1ccccc1)c1ccccc1 (configuration not stated)	-0.35
CCCCSc1nnc2c(n1)OC(c1ccccc1C)N(C(C)=O)c1ccccc1-2 (configuration not stated)	0.91
Nc1cc(=O)nc(SCC(=O)Nc2nc(-c3ccccc3)cs2)n1-c1ccccc1	-0.58
COc1ccccc1N1CCN(C(=O)CN(Cc2ccccc2)S(=O)(=O)c2ccc(F)cc2)CC1	1
Cc1noc(NS(=O)(=O)c2ccc(NC(=O)CCc3ccccc3)cc2)c1C	0.5
CCC(C)NC(=O)c1cc2nc(-c3ccc(Br)cc3)cc(C(F)(F)F)n2n1 (configuration not stated)	-1
COc1cccc(N2CCN(C(=O)CN3C(=S)NC(C)(C)CC3C)CC2)c1 (configuration not stated)	0.47
CCC1CCCCN1CCCNC(=O)C1CCN(S(=O)(=O)N2CCCCC2)CC1 (configuration not stated)	0.24

The list goes on.
SMILES	Measles inh
COc1ccc(OC)c(-n2c(=S)[nH]c3cc(C(=O)NCc4ccc5c(c4)OCO5)ccc3c2=O)c1	-0.31
CC1(C)CC(=O)c2sc(NC(=O)CSC(=O)c3ccccc3)nc2C1	-0.32
CCCCN1C(=O)C(O)(CC(=O)c2ccc(C(C)(C)C)cc2)c2ccccc21 (configuration not stated)	1.3
O=C1c2ccccc2C(=O)N1c1ccc2[nH]c(=S)sc2c1	0.81
COCCn1c(=S)[nH]c2cc3ccccc3cc2c1=O	-0.71
Brc1cccc(-c2nc3ccccn3c2Nc2ccc3c(c2)OCCO3)c1	-0.66
CC1Cc2ccccc2N1C(=O)CCS(=O)(=O)c1cccc2nonc12 (configuration not stated)	-0.5
O=C(Nc1ccc(OC(F)(F)F)cc1)c1[nH]ncc1[N+](=O)[O-]	0.29
Cc1ccccc1Cn1c(CCNC(=O)C(C)(C)C)nc2ccccc21	-0.53
CCOC(=O)c1cnc2cc(C(F)(F)F)ccc2c1Nc1ccc(C(C)C)cc1	-0.68
CCN1C(=S)OC(=CN(C(C)=O)c2ccccc2)C1=S	0.09
NC(=O)c1cc2c(ccc3ccccc32)oc1=Nc1cc(C(F)(F)F)ccc1N1CCCCC1	-0.1
O=C(CSc1nc2ccccc2c(=O)n1CC1COc2ccccc2O1)N1CCCCCC1 (configuration not stated)	1.7
COc1ccccc1NC1OC(=O)c2ccccc21 (configuration not stated)	-0.61
O=C(c1ccc2c(c1)[nH]c(=S)n1c3ccccc3nc21)N1CCN(c2ccc(F)cc2)CC1	-0.13
Cc1ccc(-c2[nH]c3ccccc3c2C)cc1	0.57
COc1ccccc1CNS(=O)(=O)c1cc(C(=O)Nc2ccc(C(C)C)cc2)ccc1F	-0.18
O=C(NCc1cccs1)c1ccc2c(c1)N(Cc1ccc(F)cc1)C(=O)CS2	2.1
COC(=O)C(CC(C)C)NC(=O)C1c2ccccc2Oc2ccccc21 (configuration not stated)	0.22
COCC(=O)N1CCc2cc(OC)c(OC)cc2C1COc1ccc2c(C)cc(=O)oc2c1 (configuration not stated)	-0.09
O=[N+]([O-])c1cccc(S(=O)(=O)N2CCCCCC2)c1	-0.42
COc1ccc(-n2c(SCC(=O)Nc3nccs3)nc3c(sc(=S)n3-c3ccccc3)c2=O)c(OC)c1	-0.34

Molecules shown so far containing an NH in an aromatic ring (14):
SMILES	Measles inh
CC1CCCC(NC(=O)Cc2ccc(-n3c(=S)[nH]c4ccccc4c3=O)cc2)C1C (configuration not stated)	1.1
CCOC(=O)c1[nH]c(C)c(C(Br)=CBr)c1C	-0.2
O=C(Nc1ccccc1-c1nc2ccccc2[nH]1)c1ccc(S(=O)(=O)N2CCCC2)cc1	-1.5
CCOC(=O)Cc1c(C)nc2c(-c3ccc(Cl)cc3)c[nH]n2c1=O	-1.2
COc1ccc(CC(=O)NCCc2cc3cc(C)c(C)cc3[nH]c2=O)cc1	0.35
CCOC(=O)c1[nH]c2c([N+](=O)[O-])cccc2c1CC	-0.6
O=S(=O)(NCc1ccccc1)c1cnc[nH]1	0.37
COc1ccc(NC(N)=Nc2nc3c(c(=O)[nH]2)CCCC3)cc1	-0.36
COc1ccc(OC)c(-n2c(=S)[nH]c3cc(C(=O)NCc4ccc5c(c4)OCO5)ccc3c2=O)c1	-0.31
O=C1c2ccccc2C(=O)N1c1ccc2[nH]c(=S)sc2c1	0.81
COCCn1c(=S)[nH]c2cc3ccccc3cc2c1=O	-0.71
O=C(Nc1ccc(OC(F)(F)F)cc1)c1[nH]ncc1[N+](=O)[O-]	0.29
O=C(c1ccc2c(c1)[nH]c(=S)n1c3ccccc3nc21)N1CCN(c2ccc(F)cc2)CC1	-0.13
Cc1ccc(-c2[nH]c3ccccc3c2C)cc1	0.57

Source: PubChem (Emory University Molecular Libraries Screening Center)
